Screening results deposited in PubChem by National Center for Advancing Translational Sciences (NCATS).
CtBP-E1A blk – CtBP/E1A binding inhibition | AlphaScreen GST-E1A/His-CtBP binding, 1536-well; hits give low values; control for the full effect not named in the record | activity change, % (concentration not given with the values) | 340,000 tested, 0.49% active; in the data active means activity change below about -65%; inconclusive means about -30% to -65%; inactive means above about -30%; also: % is scaled to controls: 0 for no effect and ±100 for the full control effect
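In 5 uL wells, 23 nL compound meets equimolar GST-E1A and His-CtBP (5X stock 125 nM each) for 2 h, 37 °C. Beads (5X, 50 ug/mL) then 1 h, 37 °C, dark.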
TRPV1 PAM – enhances activation of the human vanilloid receptor TRPV1. Q8NER1. TRPV1-expressing cells, Fluo-8 calcium influx, capsaicin EC20 potentiation; host cell line not named in the record; control for the full effect not named in the record. potentiation, % at 8.33 µM. 320,000 tested, 0.02% active; active means potentiation above 80%; inconclusive means 30% to 80%; inactive means below 30%; also: 0% is about no effect
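Cells expressing TRPV1 were dye-loaded with Fluo-8 and read kinetically: 10 s baseline, 3 min after compound (agonist portion), then 2 min after EC20 capsaicin (allosteric enhancer portion). Calcium-bound dye fluorescence at 480/520 nm.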
TRPML1 agonist – agonists of human TRPML1 channel; TRPML1-expressing cells, Ca2+ dye fluorescence, FDSS; host cell line not named in the record; reference of the full effect not given here; activation, % (test concentration not listed); 410,000 tested, 0.12% active; in the data active = activation above about 50%; inconclusive = about 30% to 50%; inactive = below about 30%; also: 0% is about no effect; the text of the record puts the active cut at 80%
Target sequence (Q9GZU1 whole entry, looked up): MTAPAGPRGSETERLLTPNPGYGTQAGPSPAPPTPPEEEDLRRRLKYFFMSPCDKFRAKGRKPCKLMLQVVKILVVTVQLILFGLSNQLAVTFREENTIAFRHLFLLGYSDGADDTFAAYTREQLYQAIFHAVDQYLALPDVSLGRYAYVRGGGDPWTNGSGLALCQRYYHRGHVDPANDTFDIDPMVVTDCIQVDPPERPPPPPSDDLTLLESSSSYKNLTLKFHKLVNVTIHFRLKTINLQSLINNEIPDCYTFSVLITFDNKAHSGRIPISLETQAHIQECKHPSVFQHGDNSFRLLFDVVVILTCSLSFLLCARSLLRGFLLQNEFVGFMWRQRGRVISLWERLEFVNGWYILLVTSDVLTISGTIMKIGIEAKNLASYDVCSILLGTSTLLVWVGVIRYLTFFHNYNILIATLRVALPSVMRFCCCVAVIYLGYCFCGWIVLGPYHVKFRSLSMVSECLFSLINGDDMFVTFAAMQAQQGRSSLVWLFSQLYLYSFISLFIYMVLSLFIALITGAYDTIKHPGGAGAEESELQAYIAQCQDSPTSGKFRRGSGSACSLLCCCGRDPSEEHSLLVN
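In this qHTS format, compounds were pin-transferred onto Ca8-dye-loaded TRPML1-DL cells induced with Tet overnight, and intracellular Ca2+ fluorescence was recorded kinetically for 110 s after a 10 s baseline. A subsequent 4uM final 54-4 (EC80) addition followed by a second 110 s read served as the antagonist phase.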
D2 potentiator – potentiates the human D2 dopamine receptor allosterically | P14416 | DiscoveRx D2 beta-arrestin cells, luminescence, 90 min; 100% = 57 uM dopamine signal | potentiation, % (test concentration not listed) | 360,000 tested, 0.23% active; active = potentiation of 50% or more; inconclusive = 30% to 50%; inactive = 30% or less;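 also: compound concentration not given in the record; tested on top of an EC20 dose of dopamine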
Target sequence (P14416 whole entry, looked up): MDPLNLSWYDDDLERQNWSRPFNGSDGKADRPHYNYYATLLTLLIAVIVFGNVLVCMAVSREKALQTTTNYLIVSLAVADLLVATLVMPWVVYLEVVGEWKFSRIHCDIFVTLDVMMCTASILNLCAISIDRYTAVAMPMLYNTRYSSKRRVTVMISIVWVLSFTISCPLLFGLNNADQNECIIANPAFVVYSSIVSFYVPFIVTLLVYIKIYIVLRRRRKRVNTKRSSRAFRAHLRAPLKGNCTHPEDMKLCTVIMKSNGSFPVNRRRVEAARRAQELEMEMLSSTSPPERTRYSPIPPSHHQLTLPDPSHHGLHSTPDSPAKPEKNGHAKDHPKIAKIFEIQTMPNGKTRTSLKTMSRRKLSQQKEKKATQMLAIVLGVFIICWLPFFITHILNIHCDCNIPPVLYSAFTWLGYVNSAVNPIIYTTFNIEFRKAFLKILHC
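PathHunter D2 cells, attached overnight at 37 deg C, received compound in DMSO plus dopamine at EC20 (50 nM final) for 90 min at 37 deg C. Beta-arrestin recruitment was read as luminescence after 1 h with detection reagent at ambient temperature.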
Six1-Eya2 blk – Six1/Eya2 interaction inhibition; 360,000 tested, 0.56% active; AID 651725; AlphaScreen GST-Six1/His-Eya2 binding, biochemical; hits give low values; control for the full effect not named in the record; activity change, % (test concentration not listed); Q15475+O00167; in the data active = activity change below about -65%; inconclusive = about -30% to -65%; inactive = above about -30%; also: % is scaled to controls: 0 for no effect and ±100 for the full control effect; compound concentration not given in the record
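Homogeneous AlphaScreen proximity assay pairing GST-Six1 with His-tagged Eya2 (added as 5X mix: 250 nM and 500 nM) in 50 mM Tris pH 8.0, 300 mM NaCl, 1 mM TCEP. Glutathione donor and nickel acceptor beads; 1 h, 37 °C, dark.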
TRPML1 inh – blocks the human TRPML1 channel. TRPML1-inducible cells, Ca2+ dye fluorescence, FDSS; hits give low values; inhibition of EC80 agonist-evoked calcium signal. AID 624415. 390,000 tested, 0.02% active. Q9GZU1. activity change, negative = inhibition, % (test concentration not listed); in the data active means activity change below about -50%; inconclusive means about -30% to -50%; inactive means above about -30%;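 also: stimulus is agonist 54-4 at its EC80 concentration; % is scaled to controls: 0 for no effect and ±100 for the full control effect; compound concentration not given in the record; the text of the record puts the active cut at -80%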
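Calcium fluorescence in TRPML1-DL cells induced overnight with Tet: a 110 s read after compound pin addition, then a 110 s antagonist read after challenge with 54-4 at 4 uM final (EC80).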
* hit, by the source's call; ? = inconclusive; . = no result given. Outcome played no part in choosing rows. About 0.95% of those tested had a hit in this group.

SMILES	CtBP-E1A blk	TRPV1 PAM	TRPML1 agonist	D2 potentiator	Six1-Eya2 blk	TRPML1 inh
FC(F)(F)c1cccc(CN2CCCCCC2)c1	0	0	-0.9	-12	5	5
COc1ccccc1C(=O)NCC(=O)N/N=C/c1cccc(Cl)c1	-1	4	0.9	-2	12	52
CCOC(=O)c1ccc(N2C(=O)CC(C3CCCO3)C2=O)cc1 (stereo not given)	12	-3	0.6	4	8	17
Cc1ccc(-c2nc(CS(=O)(=O)CC(=O)N3CCc4ccccc4C3)c(C)o2)cc1	-2	-13	1.1	-4	-9	-2
Cn1c(=O)c(C(=O)c2ccc(S(C)(=O)=O)c(Cl)c2Cl)c(O)c2ccccc21	4	.	3.9	1	5	24
CS(=O)(=O)N(CC(=O)Nc1cccc(F)c1)Cc1ccccc1	3	?	1.9	-9	3	-3
O=C(NCC1CCN(Cc2ccccc2F)CC1)Nc1cccc(Br)c1	-1	-3	0.2	-14	3	-7
CCOC(=O)c1ccc(NC(=O)CN2C(=O)NC3(CCCCCCC3)C2=O)cc1	3	16	5.1	1	3	29
NNC(=O)c1ccc(COc2cccc3ccccc23)o1	.	-23	1.4	5	3	28
COc1cc(-c2nnc(COC(=O)c3ccc(C)o3)o2)cc(OC)c1OC	-4	3	-0.4	?	-10	8
CCC[C@@H]1C[C@@H](C(=O)N[C@H]([C@@H](C)O)[C@H]2O[C@H](SC)[C@H](O)[C@@H](O)C2O)N(C)C1 (stereo not given in full)	6	2	-0.3	-17	7	5
O=C(CCCn1c(=S)[nH]c2ccc(Br)cc2c1=O)NCC1CCCO1 (stereo not given)	3	.	2.3	-9	-1	8
O=C(COC(=O)/C=C/c1cccc(Cl)c1)NC(=O)NCc1ccccc1	-5	4	4.7	-1	1	23
COc1ccc(Br)cc1Cn1nnc(C(=O)Nc2ccc3c(c2)OCCO3)c1N	-9	0	0.8	-2	-9	6
O=C(N/N=C/C(Cl)=C/c1ccccc1)c1ccco1	?	-17	-0.8	-7	-5	-9
Cc1ccccc1Nc1nnc(C)c(=O)n1N	3	1	0.7	-1	4	-4
COc1ccc(S(=O)(=O)NCc2ccccn2)cc1NC(=O)c1ccccc1F	-1	4	-1.7	-13	-1	-10
Cc1cccc(C2=NN(c3ccccc3)[C@H](CO)[C@H]2c2ccccc2)c1	40	.	-1.1	7	48	-13
O=C(CN(CC1CCCO1)C(=O)CNS(=O)(=O)c1ccccc1)NCCc1ccccc1 (stereo not given)	8	-7	-0.4	-9	5	18
COC(=O)CNc1nc(-c2ccncc2)nc2ccccc12	2	-1	1.0	1	0	-9

2 of the compounds above, with each value named:
> COC(=O)CNc1nc(-c2ccncc2)nc2ccccc12
- CtBP-E1A blk: 2
- TRPV1 PAM: -1
- TRPML1 agonist: 1.0
- D2 potentiator: 1
- Six1-Eya2 blk: 0
- TRPML1 inh: -9
> COc1cc(-c2nnc(COC(=O)c3ccc(C)o3)o2)cc(OC)c1OC
- CtBP-E1A blk: -4
- TRPV1 PAM: 3
- TRPML1 agonist: -0.4
- D2 potentiator: ?
- Six1-Eya2 blk: -10
- TRPML1 inh: 8

Going on with the list:
SMILES	CtBP-E1A blk	TRPV1 PAM	TRPML1 agonist	D2 potentiator	Six1-Eya2 blk	TRPML1 inh
O=C(Nc1ccccc1)Nc1cc(S(=O)(=O)N2CCOCC2)ccc1N1CCCC1	-7	9	-0.4	-20	0	-11
CCOC(=O)CC1(NC(=O)C2CCC(=O)N(Cc3ccccc3OC)C2)CCCCC1 (stereo not given)	8	-2	2.0	-10	2	18
O=C(NNC(=O)c1cccs1)c1ccncc1	9	-13	1.7	-5	1	2
O=S(=O)(c1ccc2c(c1)OCCO2)N1CCN(c2nc3ccccc3s2)CC1	-1	-5	1.0	1	-3	17
C=CCn1c(COc2ccccc2F)nnc1SCC(=O)c1c[nH]c2ccccc12	21	8	0.7	-8	14	2
CCN(CC)S(=O)(=O)c1ccc(NC2c3ccccc3C(=O)N2c2ccc(C)cn2)cc1 (stereo not given)	5	.	0.2	-6	2	-3
CCc1ccc(NC(=O)CCCNC(=O)Cn2cnc3sc(C)c(C)c3c2=O)cc1	5	-1	-1.1	-3	4	-22
CN1CCN(C(=O)c2cc(COc3ccc(F)cc3Cl)on2)CC1c1ccccc1 (stereo not given)	-16	-5	2.5	-4	-6	-2
Cc1ccc(S(=O)(=O)Cn2nnnc2C(CC(C)C)N2CCN(c3ccc(F)cc3)CC2)cc1 (stereo not given)	-1	13	-0.6	28	-1	30
COCCNC(=O)c1c[nH]c2ccc(S(=O)(=O)N(C)c3ccc(C)c(C)c3)cc2c1=O	-12	29	-0.4	23	-8	-12
NC1=NOC(=O)C1C1CCCCC1 (stereo not given)	6	.	-0.4	11	4	0
Cn1ccc(NC(=O)Nc2cccc([N+](=O)[O-])c2)n1	.	-6	0.3	-10	0	-10
Cc1ccccc1C(=O)NNC(=O)C12CC3CC(CC(C3)C1)C2	5	2	-0.4	-7	6	4
O=C1/C(=C2/NCCN2C2CC(=O)N(c3ccccc3)C2=O)CC/C1=C\c1ccccc1 (stereo not given)	-12	9	0.3	-5	0	18
CC#CCN1c2ccccc2[C@]23C[C@@H](C(=O)OC)N(C(=O)C4CCC4)C2=NC(C(=O)OC)=C(C(=O)OC)[C@H]13	-2	28	2.7	-6	-13	-16
CCCCNc1c(-c2ccc(-c3cccc(Cl)c3)cc2)nc2ccccn12	1	3	1.6	-3	-1	54
O=C(NC1CCCCC1)c1n[nH]c2c1CCCCC2	9	-20	-0.6	-12	1	14
Cn1nc(C(=O)NC2CCCCC2)c2c1-c1ccccc1SC2	0	16	1.0	-6	1	11
COc1ccccc1NC(=S)NC(=O)CCCOc1ccc(Cl)cc1Cl	10	-1	1.7	2	-1	-20
COc1ccccc1C/C(N)=N/OC(=O)COc1cc(C)cc(C)c1C	15	10	2.5	1	32	1

Rewritten as comma-separated lines: part of the list above.
canonical_smiles,CtBP-E1A blk,TRPV1 PAM,TRPML1 agonist,D2 potentiator,Six1-Eya2 blk,TRPML1 inh
COc1ccccc1C(=O)NCC(=O)N/N=C/c1cccc(Cl)c1,-1,4,0.9,-2,12,52
CCOC(=O)c1ccc(N2C(=O)CC(C3CCCO3)C2=O)cc1 (stereo not given),12,-3,0.6,4,8,17

Continuation:
SMILES	CtBP-E1A blk	TRPV1 PAM	TRPML1 agonist	D2 potentiator	Six1-Eya2 blk	TRPML1 inh
CCOC(=O)C1CCCN(C(=O)C(CCSC)NC(=O)COc2ccccc2)C1 (stereo not given)	-5	-4	-1.0	-16	5	26
CCOc1ccccc1C(=O)N/N=C/c1coc2ccc(C)cc2c1=O	3	-2	0.3	-13	-7	1
Cc1c(C(=O)NCCNc2ncc(C(F)(F)F)cc2Cl)cccc1[N+](=O)[O-]	12	3	-1.2	-4	-6	-11
CN1C(=O)/C(=C/c2ccc(OCc3ccc(F)cc3)cc2)N(C)C1=S	-10	-6	0.2	-1	13	12
O=C(NCCC1=CCCCC1)c1coc(=O)c(Br)c1	2	-16	-1.1	-18	3	-1
O=C(CCCOc1ccc(Cl)cc1Cl)N/N=C\C1CCCCC1	13	-21	-0.1	8	0	-3
COc1cc(NC(=O)Cc2nn(C)c(=O)c3ccccc23)cc(OC)c1OC	-9	20	0.4	-5	-8	-1
CCN(CC)c1ccc(CN2CCC(C(=O)NCc3ccc(C)cc3)CC2)cc1	-9	6	-0.1	-22	-22	18
CCOC(=O)C1CCN(C(=O)CSc2c3c(nc4ccccc24)CCC3)CC1	-2	-2	0.6	-3	-7	1
O=C1C2C3C=CC(C3)C2C(=O)N1c1ccc2c(c1)OCO2 (stereo not given)	8	5	0.4	2	3	-5
CC1CCCCC12NC(=O)N(CC(=O)NCCc1c[nH]c3ccccc13)C2=O (stereo not given)	.	2	-0.3	6	2	5
CC(C(=O)Nc1sc2c(c1C(=O)NCc1ccco1)CCCC2)N1C(=O)c2ccccc2C1=O (stereo not given)	-1	3	0.4	-3	5	-6
O=c1[nH]n(-c2ccc(Cl)cc2)c2ncccc12	-3	.	0.3	-16	3	4
CCOC(=O)N1CCN(C(=O)NC2CCCCC2)CC1	10	3	3.7	2	11	-4
CC(C)n1nnnc1SCC(=O)NCc1ccco1	2	.	0.0	5	4	-6
COCCN(CC(=O)NC1CCCCC1)C(=O)/C=C/C(=O)c1ccc(OC)cc1O	20	-2	0.0	-44	-2	9
Cc1cc(C)c(C(=O)N2CCC(N3CCC(C(=O)NC(C)C)CC3)CC2)o1	-17	-1	0.7	-22	2	3
CCCCN1CC(N2CCN(C3CCN(C)CC3)CC2)CS1(=O)=O (stereo not given)	5	.	-0.7	0	0	.
CSc1cccc(NC(=O)COc2cccc3ccccc23)c1	6	4	0.9	4	2	2
O=S(=O)(c1ccc(F)cc1)N1CCN(CC(O)COCC2CCCO2)CC1 (stereo not given)	4	-9	1.0	3	-4	-20
O=C(CN(C(=O)CCC(=O)Nc1ccccn1)c1ccc2c(c1)OCO2)NCc1ccco1	-2	9	-0.5	-18	-10	30
NC1=NC(=O)/C(=C/c2ccc(Cl)cc2Cl)S1	5	-2	-0.6	-6	6	26
CC1CCCN(S(=O)(=O)CCNC(=O)c2ccccc2)C1 (stereo not given)	12	-21	0.6	-11	8	11
N#Cc1cn(-c2ccccc2)nc1-c1ccco1	-3	5	0.0	-5	1	21
COc1ccccc1C(=O)Nc1ccc(-c2nnn(CC(=O)NCc3ccco3)n2)cc1	4	-1	.	4	1	.
CCN1CCN(Cc2nc(N)nc(Nc3ccc(C)c(C)c3)n2)CC1	-7	-8	-0.4	0	-3	-11
CC1CC(C)CN(C(=O)c2ccc(C(=O)c3ccccc3)cc2)C1 (stereo not given)	3	-27	-1.4	7	1	-1
Nc1nc(NCCO)nc(N2CCCCCC2)c1[N+](=O)[O-]	3	1	0.8	4	2	38
CCc1cc(=O)oc2c3c(cc(OCC(=O)NCCCOC)c12)OC(C)(C)CC3	3	10	0.5	-8	-1	-8
O=C(CN1C(=O)CSC1=O)NC1CCCCC1	4	3	3.2	-7	-2	24
COc1cc2c(C(=O)NCc3ccccn3)cn(C)c(=O)c2cc1OC	-4	3	-0.6	0	3	-15
COC(=O)c1ccc(NC(=S)N(Cc2cccnc2)Cc2ccco2)cc1	5	-5	1.5	6	1	-3
CCN(C(=O)COC(=O)CCOc1ccccc1)c1c(N)n(Cc2ccccc2)c(=O)[nH]c1=O	1	-8	0.5	3	3	17
CCOc1ccc(C(=O)Nc2ncn[nH]2)cc1	.	-5	.	-9	2	.
Cc1ccc(C(=O)NCCc2csc(C)n2)cc1	0	-4	0.7	-2	30	7
CC1=C(C(=O)Nc2cccc(C(=O)N3CCN(c4cccc(C(F)(F)F)c4)CC3)c2)SCCO1	-21	-13	0.8	-4	-19	8
CCOc1ccc(OCCCCNC(C)(C)C)cc1	.	3	0.2	-10	5	20
C/C(N)=C(/C#N)C(=O)CSc1n[nH]c(-c2cccs2)n1	0	14	-1.2	-25	3	-13

Copied from the list.
`CC1CCCN(S(=O)(=O)CCNC(=O)c2ccccc2)C1` (stereo not given) in TRPML1 inh → 11
`O=C(Nc1ccccc1)Nc1cc(S(=O)(=O)N2CCOCC2)ccc1N1CCCC1` in Six1-Eya2 blk → 0
`O=C(COC(=O)/C=C/c1cccc(Cl)c1)NC(=O)NCc1ccccc1` in CtBP-E1A blk → -5
`CCOC(=O)c1ccc(N2C(=O)CC(C3CCCO3)C2=O)cc1` (stereo not given) in Six1-Eya2 blk → 8
